Screens as filed in PubChem.
LASV entry inh: qHTS for Inhibitors of binding or entry into cells for Lassa Virus; Lassa virus pseudotype entry inhibition, cell reporter; control for the full effect not named in the record; Potency, µM (highest dose often 37.9 µM), for the others: at the highest dose activity change, negative = inhibition, actives largely listed as inhibitors; actives 1.2% (n = 300,000); AID 540256, 2011; active means well fitted inhibition curve with a large enough effect; inconclusive means small, poorly fitted or top-dose-only effect, or effect the other way; inactive means flat fitted curve, though single readings scatter; tested in HEK293 cells; further: on the % scale 0 is the no-effect control and ±100 the full control effect; nearly all actives have a fitted effect of over 50% in size; luciferase read-out
NS1 inh: qHTS Assay for Inhibitors of Influenza NS1 Protein Function; S. cerevisiae slowed by influenza A NS1, growth recovery by OD600; Potency, µM (top dose mostly 46.1 µM), for the others: at the top dose activity, positive = more growth; actives 0.4% (n = 270,000); further: actives are rising curves; nearly all actives have a fitted effect of over 50% in size
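In this qHTS, NS1 from influenza A is expressed in budding yeast, where it slows growth. Cells are switched from glucose to 2% galactose medium (pH 6.0, -URA), treated with compound, and growth recovery is read at OD600.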
Cruzain noTriton: qHTS Assay for Promiscuous and Specific Inhibitors of Cruzain (without detergent); AID 1476, 2009; purified cruzain, Z-FR-AMC fluorescence, no detergent; actives 2.3% (n = 200,000); Cruzipain (Trypanosoma cruzi), P25779; Potency, µM, inactives show max response, negative = inhibition, usual class: inhibitors; active means well fitted curve in the direction sought with a large enough effect; inconclusive means small, poorly fitted or top-dose-only effect, or another doubt; inactive means no such curve, though single readings can be large; an effect the other way counts as inactive or inconclusive;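 further: plate controls were enzyme without inhibitor for no effect and buffer without enzyme for full effect; nearly all actives have a fitted effect of over 40% in size; top concentration of the series not given in the record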
Target sequence (P25779 123-467 limits assumed): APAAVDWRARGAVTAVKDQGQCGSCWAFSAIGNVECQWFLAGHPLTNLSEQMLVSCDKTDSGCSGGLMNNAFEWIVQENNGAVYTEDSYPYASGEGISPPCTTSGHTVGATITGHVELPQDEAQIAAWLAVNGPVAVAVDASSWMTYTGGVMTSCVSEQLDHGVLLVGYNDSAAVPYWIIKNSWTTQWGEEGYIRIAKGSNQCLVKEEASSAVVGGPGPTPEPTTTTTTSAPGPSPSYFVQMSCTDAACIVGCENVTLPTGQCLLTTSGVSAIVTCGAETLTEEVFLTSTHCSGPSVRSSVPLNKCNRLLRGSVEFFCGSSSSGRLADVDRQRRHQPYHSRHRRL
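Purified cruzain at 1.5 nM, pre-incubated 15 min with compound at room temperature in 100 mM sodium acetate pH 5.5, 5 mM DTT, 0.00005% Triton X-100. Reaction started with 2 uM Z-FR-AMC; AMC fluorescence increase over 60 s gives rate.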
SARS PLpro yeast: qHTS of Yeast-based Assay for SARS-CoV PLP | S. cerevisiae expressing SARS-CoV PLpro, growth rescue; control for the full effect not named in the record | Potency, µM (series often up to 32.9 µM), for inactives: at the highest dose activity, positive = growth rescue | actives 0.19% (n = 330,000) | AID 485353, 2010; further: 0% is about no effect; nearly all actives have a fitted effect of over 55% in size; growth read by luminescence after 48 h
Marburg entry inh: qHTS for inhibitors of binding or entry into cells for Marburg Virus | Potency, µM (top dose mostly 37.8 µM), for inactives: at the top dose activity change, negative = inhibition, most hits filed as inhibitors | actives 1.8% (n = 300,000) | Marburg virus pseudotyped entry inhibition, cell reporter; control for the full effect not named in the record; about a third of the inactives were read at about 46 µM; active = well fitted inhibition curve with a large enough effect; inconclusive = small, poorly fitted or top-dose-only effect, or effect the other way; inactive = flat fitted curve, though single readings scatter; tested in HEK293 cells; about a fifth of its hits are not listed in these tables; further: on the % scale 0 is the no-effect control and ±100 the full control effect; luciferase read-out
Cruzain Triton: qHTS Assay for Promiscuous and Specific Inhibitors of Cruzain (with detergent) | actives 0.43% (n = 200,000) | Potency, µM, for the others: max response, negative = inhibition, usual class: inhibitors | AID 1478, 2009 | purified cruzain, Z-FR-AMC fluorescence, 0.01% Triton; active means well fitted curve in the direction sought with a large enough effect; inconclusive means small, poorly fitted or top-dose-only effect, or another doubt; inactive means no such curve, though single readings can be large; an effect the other way counts as inactive or inconclusive;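 further: plate controls were neutral wells for no effect and buffer without enzyme for full effect; nearly all actives have a fitted effect of over 40% in size; top concentration of the series not given in the record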
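Z-FR-AMC hydrolysis (2 uM substrate) by cruzain (1.5 nM) monitored kinetically at ex 360/em 450 nm after 15 min room-temperature compound exposure; 0.01% Triton X-100, pH 5.5, 5 mM DTT.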
RE007 growth inh: qHTS Assay for Inhibitors of the HIV-1 protein Vpr. S. pombe RE007 Vpr strain, BacTiter-Glo ATP luminescence, 24 h; control for the full effect not named in the record. Potency, µM (doses to about 92.2 µM), without a hit: at the highest dose activity change, negative = less growth. actives 0.21% (n = 360,000). AID 651644, 2012; active = well fitted falling curve with a large enough effect; inconclusive = small, poorly fitted or top-dose-only effect; inactive = no such curve, though single readings can be large or run the other way;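 further: on the % scale 0 is the no-effect control and ±100 the full control effect; nearly all actives have a fitted effect of over 50% in size; the assay follows cell death caused by Vpr and the record does not say whether a fall means rescue or toxicity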
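Fission yeast RE007 carrying one integrated HIV-1 vpr copy, seeded at OD 0.01 in PMG+AL medium with 23 nL pinned compound. Grown 24 h at 30 degrees; viability read by BacTiter-Glo luminescence after 5 min.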
StopGo reporter: High Throughput Screening for Foot and Mouth Disease Virus Antivirals; human cells with a luciferase reporter of 2A StopGo recoding; control for the full effect not named in the record; Potency, µM (doses to about 57.9 µM), without a hit: top-dose signal change, negative = less light; actives 1.2% (n = 410,000); AID 1159524, 2015; active = well fitted falling curve with a large enough effect; inconclusive = small, poorly fitted or top-dose-only effect; inactive = no such curve, though single readings can be large or run the other way; tested in HEK293T cells; further: on the % scale 0 is the no-effect control and ±100 the full control effect; nearly all actives have a fitted effect of over 45% in size; luciferase light after 4 h
* marks the source's active call; other numbers are inactive results; ? = inconclusive; . = no result given; [ ] = dose if it differs, or a comment. Unless noted, the call rests on the fitted dose curve; in most records, active means well fitted rising curve with a large enough effect; inconclusive means small, poorly fitted or top-dose-only effect; inactive means no such curve, though single readings can be large or run the other way. Potency means the concentration at half of the fitted maximal effect.

SMILES	LASV entry inh	NS1 inh	Cruzain noTriton	SARS PLpro yeast	Marburg entry inh	Cruzain Triton	RE007 growth inh	StopGo reporter
C[N+]12CCC(CC1)C(C(O)(c1cccc(Cl)c1)c1cccc(Cl)c1)C2 (stereo not drawn)	21%[46.1 µM]	-4%	.	0%	-7%[46.1 µM]	.	-6%	-18%
CCCCN(Cc1ccccc1)C1CCN(Cc2ccccc2)CC1	?	-1%	.	-12%	?	.	3%	-15%
O=C1C(Nc2ccc(O)cc2)=C/C(=N/S(=O)(=O)c2cccs2)c2ccccc21	3.5µM*	.	.	-2%	2.5µM*	.	-30%	13µM*
Cc1ccc(S(=O)(=O)N2CCOC23CCN(C(=O)c2cc(Cl)ccc2Cl)CC3)cc1	.	-60%	.	-7%	.	.	-21%	-8%
COc1ccc(/C=C/C(=O)Nc2cccnc2Cl)cc1	.	-3%	.	-3%	.	.	-19%	40%[activator]
CC1(C)OC(=O)C(=NNc2ccccc2C(=O)O)C(=O)O1	.	5%	.	2%	.	.	8%	-19%
CCN(CC)S(=O)(=O)c1cc(NC(=O)c2n[nH]c(=O)c3ccccc23)ccc1C	.	4%	.	1%	.	.	5%	1%
O=c1c2c(-c3cccs3)csc2ncn1-c1ccc(Br)cc1	6%	5%	?	-13%	?	-3.3%	-19%	-13%
CCC(=NCCc1c(C)[nH]c2ccc(OC(F)(F)F)cc12)C1=C(O)CC(c2ccccc2)CC1=O (stereo not drawn)	?	.	.	3%	?	.	2%	?
Cc1cccc(C)c1NC(=O)COC(=O)c1cccc2c1C(=O)c1ccccc1C2=O	2%	-7%	5%	28%	?	-18%	-4%	0%
CC(C)(C)N(CC#CCC1(O)c2ccccc2-c2ccccc21)CCO	0%	6%	.	1%	-3%[14.2 µM]	.	-5%	-7%
CN(C)S(=O)(=O)c1ccc(C(=O)Nc2ccc(Cl)cc2)cc1	.	?	14%	-13%	-6%	-4.1%	-3%	-22%
COc1ccc(NCc2nc3ccccc3n2CCOc2ccccc2C)cc1	-1%[46.1 µM]	.	-6%	.	?	-8.7%	.	10%
O=S1CC/C(=N\O)c2ccccc21 (stereo not drawn)	-1%	-8%	-11%	-1%	0%	-0.7%	11%	14%
CC(C)c1ccc(NC(=O)CS(=O)(=O)c2cccc3nsnc23)cc1	0%[46.1 µM]	.	5%	.	.	-4.8%	.	4%
Cc1cc(=O)c(C(=O)O)nn1-c1ccccc1Cl	.	-7%	.	5%	?	.	?	4%
Cc1csc(=O)n1CCC(=O)OCC(=O)Nc1cc([N+](=O)[O-])ccc1Cl	16%	.	.	4%	18%	.	-8%	-12%
O=C(CSCc1ccccc1)Nc1cccc(C(=O)Nc2ccc(C(=O)O)cc2)c1	2%	3%	-25%	4%	-5%	3.5%	-4%	-25%
COc1ccc(CC(=O)NNC(=O)CSc2nnc(Cc3ccc(OC)cc3)n2-c2ccccc2)cc1	-1%	-10%	27%	24%	4%	-4.0%	-5%	12%
O=C1NC2(CCCCCC2)C(=O)N1Cc1ccccc1	-14%[46.1 µM]	0%	.	2%	18%[46.1 µM]	.	-10%	-6%
Cc1cccc(OCc2nnc(SCC(=O)Nc3cccc(C(=O)N4CCOCC4)c3)n2C)c1	4%	-18%	10%	17%	2%[46.1 µM]	-2.7%	6%	-8%
CCCCCN(C(=O)COC(=O)COc1c(C)cc(C)cc1C)c1c(N)n(CCCC)c(=O)[nH]c1=O	-10%	.	.	-11%	15%[46.1 µM]	.	6%	-16%
CC(C)(C)NC(=O)NC(=O)CN1CCc2ccccc21	9%[46.1 µM]	.	.	-3%	-4%[46.1 µM]	.	6%	-15%
CCCc1noc(-c2cccc([N+](=O)[O-])c2)n1	11%	.	.	3%	-2%	.	-27%	36%[activator]
COc1ccc(-c2nn3c(C4CCCCC4)nnc3s2)cc1OC	?	-109%	?	3%	-12%	-7.5%	-9%	19%
COC(/C=C/Nc1ccc(OC)cc1)=C(C#N)C#N	1%	4%	-2%	-6%	-4%	5.0%	4%	.
CCOc1ccc(-n2cc(C(=O)NCCOC)c3cc(OC)c(OC)cc3c2=O)cc1	-1%[46.1 µM]	-6%	.	2%	?	.	13%	-21%
COc1ccc(F)cc1S(=O)(=O)NCC(c1ccc2c(c1)OCO2)N1CCN(C)CC1 (stereo not drawn)	-23%	.	.	4%	.	.	-8%	9%
Cc1nc(CS(=O)(=O)c2ccccc2)cc(N2CCN(c3ccccc3F)CC2)n1	?	.	.	-1%	?	.	31%	-29%
CC(C)CS(=O)(=O)C1=NN2C(=N)/C(=C\c3ccc(OC(=O)c4ccco4)cc3)C(=O)N=C2S1	.	8%	.	5%	.	.	-6%	?
Cc1ccc(/C=C/C(=O)OCC(=O)NCCc2ccc(S(N)(=O)=O)cc2)o1	-10%[46.1 µM]	.	.	10%	-2%[46.1 µM]	.	3%	-12%
Cc1noc(/C=C/N(C)C)c1S(=O)(=O)N1CCC(C(=O)NC(C)(C)C)CC1	.	26%	.	4%	.	.	-10%	-4%
O=C(Cn1cc(SCc2ccc(Br)cc2)c2ccccc21)N1CCCCC1	-3%[46.1 µM]	.	?	.	.	-5.5%	.	11%
CCOc1ccc(NC(=O)CN2CCN(CC(=O)Nc3ccc(Cl)c(C(F)(F)F)c3)CC2)cc1	-22%	-1%	?	-42%	?	-9.6%	-5%	?
CC(C)[C@H](NC(N)=O)C(=O)Nc1ccc(F)c(Cl)c1	5%	.	.	-1%	-13%[46.1 µM]	.	6%	-1%
O=C(CNC(=O)c1ccccc1)OCc1nc2ccccc2s1	.	-17%	13µM*	-8%	.	25µM*	4%	47%[activator]
O=C(CSc1ncc(S(=O)(=O)c2ccc(Cl)cc2)c(=O)[nH]1)Nc1cccc(C(F)(F)F)c1	?	.	21%	.	-3%[46.1 µM]	?	.	-15%
O=C(O)CNC(=O)CCN1C(=O)c2ccccc2C1=O	0%	11%	-5%	2%	9%	0.9%	14%	1%
CCOC(=O)c1cc(C)sc1NC(=O)C(c1ccccc1)c1ccccc1	1%	-16%	-29%	-5%	-19%	-6.6%	-10%	-12%
Cc1ccc(Cn2c(SCC(=O)NCC3CCCO3)nc3ccsc3c2=O)cc1 (stereo not drawn)	-15%	.	.	3%	-11%[46.1 µM]	.	32%	-3%
Cc1cc2c([nH]c3ccccc32)c(C)n1	-18%[46.1 µM]	2%	.	-5%	?	.	17%	0%
CC(C)(C)c1ccc(-n2ncc3c2CCCC3NC(=O)c2csnn2)cc1 (stereo not drawn)	-11%	6%	.	4%	0%	.	2%	-22%
CCCN(CC(=O)Nc1cc(C)on1)CC(=O)Nc1ccccc1C	-15%	.	.	-3%	-4%	.	-9%	0%
COC(=O)c1cc(-c2c(-c3ccc4c(c3)OCO4)noc2-c2ccsc2)cc([N+](=O)[O-])c1	.	7%	.	9%	.	.	10%	39%[activator]
Cc1cccn(Cc2c(F)cccc2Cl)c1=O	3%	5%	.	3%	21%	.	-5%	10%
CC(=O)Nc1ccc(C2Sc3ccccc3NC3=C2C(=O)c2ccccc23)cc1 (stereo not drawn)	8%[46.1 µM]	.	-5%	.	?	-8.6%	.	126%[activator]
O=C(CCN1C(=O)/C(=C/c2ccc(F)cc2)SC1=S)N[C@@H](CO)Cc1ccccc1	.	17%	.	-3%	.	.	-10%	0%
CN1CCN(C(CNC(=O)C(=O)Nc2ccccc2)c2ccc3c(c2)OCO3)CC1 (stereo not drawn)	-2%[46.1 µM]	.	-6%	.	.	-2.0%	.	-6%
COc1cccc(C(=O)Nc2c(C)n[nH]c2C)c1	-2%	-1%	6%	-4%	5%	7.7%	-4%	.
O=S(=O)(c1ccc(Cl)s1)N1CCc2ccccc2C1	-6%	-9%	-3%	-15%	?	-2.0%	11%	2%

Following part
SMILES	LASV entry inh	NS1 inh	Cruzain noTriton	SARS PLpro yeast	Marburg entry inh	Cruzain Triton	RE007 growth inh	StopGo reporter
O=C(O)c1ccccc1-c1ccccc1C(=O)NCc1ccco1	19%	-4%	5%	6%	?	9.0%	-2%	10%
Cn1c(C(=O)NCc2cccc(Cl)c2)cc2oc3ccccc3c21	?	.	?	.	?	-10%	.	-1%
Cc1ccc(S(=O)(=O)N2CCN(C(=O)CNC(=O)c3ccc(Cl)cc3)CC2)cc1	-7%	.	.	14%	?	.	-5%	-20%
Cc1cc2nc(C3CCN(Cc4nnnn4Cc4cccs4)CC3)[nH]c2cc1C	?	-7%	3%	-3%	?	-2.1%	-17%	-4%
COc1ccccc1NC(=S)NC(=O)C(C)(C)C	1%	-4%	-4%	-7%	18%	-0.3%	-9%	6%
N#CC1=C(N)C(C#N)(C#N)[C@H](c2cccnc2)[C@H]2CN(C(=O)OCc3ccccc3)CC=C12	?	-4%	?	10%	-26%	-6.2%	-11%	?
Cc1ccc(C2=Nc3cccnc3C(c3ccccc3)=NN2)cc1	?	.	.	-7%	?	.	-11%	57%[activator]
Cc1ccc(CN(C(=O)COc2ccc(Cl)c(C)c2)C2CCS(=O)(=O)C2)o1 (stereo not drawn)	-29%[46.1 µM]	.	?	.	-2%[46.1 µM]	-7.0%	.	-17%
CCOc1ccc(-n2c(SCc3nc(-c4ccc(OC)cc4)no3)nnc2-c2ccncc2)cc1	-13%[46.1 µM]	.	4%	.	-20%[46.1 µM]	-4.9%	.	?
Cc1cc(-c2nn(-c3ccccc3F)cc2CN2CCC(C(N)=O)CC2)c(C)s1	.	-1%	.	0%	.	.	-1%	-8%
CCOc1ccc(S(=O)(=O)NCCCl)cc1	?	3%	.	1%	8%[46.1 µM]	.	23%	6%
